# Calb biofilm kill = mixtures killing C. albicans biofilm; C. albicans biofilm persisters + clotrimazole, fluorescence viability; primary screen in compound mixtures of four per well; inhibition, % at 7.6 µM; 120,000 compounds, 0.02% hits; AID 1242;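 active = inhibition above 30.3% in the primary screen of four-compound pools, then above 30% when the compound was retested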;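 also: compounds exposed to preformed 24 h biofilms for 48 h; the number belongs to the whole pool; some results filed as inactive read as strong as hits; inactives centre near 12; 0% = biofilm with clotrimazole alone and 100% = kill control; retested singly at about 60 µM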
#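 Incubation: 24 h biofilm formation, then 48 h compound exposure, 37 °C | Material: C. albicans biofilms | Buffer or medium: RPMI/MOPS medium, pH 7.0 | Measured by: 2-h Alamar Blue fluorescence, 535/590 nm excitation/emission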
# * = called active by the depositor; & = joins results of further samples.
SMILES | Calb biofilm kill
Cc1ccc2c(c1)C1CN(C)CCC1N2C(=O)c1cn(-c2ccccc2)nc1-c1ccccc1 (centres undefined) | 19
CCOC(=O)C(NC(=O)CCl)(Nc1ccc(C(O)(C(=O)OCC)C(F)(F)F)cc1)C(F)(F)F (centres undefined) | 6
CCCCn1c(O)c(C(=O)/C=C/c2ccc3c(c2)OCO3)c(=O)[nH]c1=O | 5
CCOC(=O)C1(CCOc2ccccc2)CCN(Cc2ccc(C)s2)CC1 | 9
COc1ccc(CCNCc2ccc(C)s2)cc1OC | 16
CCCCCn1c(=O)c(C(=O)Nc2cnccn2)c(O)c2ccccc21 | -4
Cc1nn(C)c(C)c1/C=C1/CC2C3CC=C4CC(O)CCC4(C)C3CCC2(C)C1=O (centres undefined) | 18
Cc1cc(=O)[nH]c(SCc2nc3ccccc3c(=O)n2-c2ccccc2C)n1 | 7

# Later entries.
SMILES | Calb biofilm kill
C[C@H]1CC[C@@]2(C)[C@@H](CC[C@@H]3[C@@H]2CC[C@]2(C)[C@@H](O)CC[C@@H]32)C1 | 9
O=c1c2ccccc2nc(-c2ccccc2)n1-c1cccc(O)c1 | 5
NP(=O)(OCC(F)(F)F)Oc1cccc2ccccc12 (centres undefined) | 17
Cc1c(C(=O)N2CCC3(CC2)OCCO3)oc2ccc(S(=O)(=O)N3CCCCC3)cc12 | 22
O=C(Cc1ccccc1)N1CCN(Cc2cccc(Br)c2)CC1 | 8
CCCc1c(C)nc(SCC(=O)C(C)(C)C)nc1OC(=O)N(C)C | 10
CC(C)(C)c1cc([N+](=O)[O-])cc(C(C)(C)C)c1O | 16
O=C(O)CCn1cc(C=C2C(=O)NC(=O)NC2=O)c(-c2cc3ccccc3oc2=O)n1 | 11

# (continued)
SMILES | Calb biofilm kill
C#CCOc1cc(C2C3=C(COC3=O)Nc3cc4c(cc32)OCO4)ccc1OC (centres undefined) | 15
CCOc1ccc(C2CC(c3c(O)n(C)c(=O)n(C)c3=O)=NN2)cc1 (centres undefined) | 13
O=c1[nH]c(O)c(N=Nc2ccc(SC(F)F)cc2)c(=O)[nH]1 | 12
O=c1c2ccccc2nc(CNCc2ccco2)n1-c1ccc(F)cc1 | 4
N#CC(C#N)=Cc1ccc(-c2ccccc2F)o1 | -4
O=[N+]([O-])c1ccc(NCCO)c2ncccc12 | 14
c1ccc(-c2cc(-c3ccccc3)[n+](-c3ccccc3)c(-c3ccccc3)c2)cc1 | 1
COc1cc(OC)cc(C(=O)Nc2ccc(Br)cc2C(=O)c2ccccc2)c1 | 1

# Going on with the list:
SMILES | Calb biofilm kill
N#CC(C#N)=NNc1ccc(-n2ccc(C(F)(F)F)n2)cc1 | 13
CCCC(C)(COC(N)=O)COC(=O)NC(C)C (centres undefined) | 13
O=C(CN1CCCCC1)c1ccccc1Cl | 9
Clc1cccc(N2CCNCC2)n1 | 11
CC(=O)OC1(c2ccccc2)CC(C(C)(C)C)CN(C(C)(C)C)C1 (centres undefined) | 14
O=[N+]([O-])c1cc(F)c(N2CCCCCC2)cc1N1CCNCC1 | -3
COc1ccc(N2C(=O)/C(=C/c3cc(C)n(-c4ccc(C)cn4)c3C)C(=O)NC2=S)c(OC)c1 | 7
CCC(=O)OC1(c2ccccc2)CCN(C)CC1C (centres undefined) | 4

# Continuation.
SMILES | Calb biofilm kill
CCOc1cccc(=NC2CCCCC2)c2c(C)[nH]c(C)c12 | 7
CCc1ccc(CN2CCN(Cc3cc(Br)ccc3O)CC2)cc1 | 15
CC(C)N1CCN(Cc2cccc3c2OCO3)CC1CCO (centres undefined) | 13
O=C1CN=C(c2ccc(F)cc2)c2oc3ccccc3c2N1 | 6
CCOC(=O)c1c(/N=C/c2c(O)n(-c3cccc(C)c3)c(=O)[nH]c2=O)sc2c1CCCC2 | 7
Nc1nnc(CCN2CCCCC2)s1 | 17
COc1ccc(C(=O)C2CCCN(Cc3ccc(C)s3)C2)c(OC)c1 (centres undefined) | 16
CCc1nnc(NS(=O)(=O)c2ccc(N=Cc3c(O)n(-c4ccc(Cl)cc4)c(=O)[nH]c3=O)cc2)s1 | 8

# Further compounds.
SMILES | Calb biofilm kill
Cc1c(N=Cc2c(O)n(C)c(=O)[nH]c2=O)c(=O)n(-c2ccccc2)n1C | 18
Cc1cc(/C=C2\C(=O)NC(=S)N(C)C2=O)c(C)n1C1CCCCC1 | 5
CC1CN=C(NCCc2ccccc2)S1 (centres undefined) | 17
Cc1c(C=O)c2ccccc2n1Cc1ccc([N+](=O)[O-])cc1 | 13
CCC(=NCCCn1ccnc1)c1c(O)n(-c2ccccc2)c(=O)[nH]c1=O | 8
O=C(NC(=C(Cl)Cl)P(=O)(c1ccccc1)c1ccccc1)c1ccccc1 | 8
CCCCn1c(O)c(C(C)=NCc2ccco2)c(=O)[nH]c1=O | 16
O=C1CC(c2ccccc2)CN1 (centres undefined) | 31

# New compounds follow.
SMILES | Calb biofilm kill
CC(=O)c1cc(C#N)c(N2CCN(C)CC2)nc1C | -22
CC1=C(C(=O)O)N2C(=O)C(NC(=O)CCCC(=O)O)C2SC1 (centres undefined) | 11
O=C1C2CCCC1C(N1CCCC1)CC2 (centres undefined) | 8
O=C(COC(=O)Cc1ccccc1)Nc1cccnc1Cl | -1
N=Cc1c(O)n(-c2ccccc2)c(=O)n(-c2ccccc2)c1=O | 19
CN(C(=O)Oc1ccc(C(C)(C)C)cc1)c1ccccc1 | -7
COc1ccccc1Cn1c(SCC#N)nc2cc(C(=O)N3CCC4(CC3)OCCO4)ccc2c1=O | 5
COc1ccc(CC2(CCc3ccncc3)C(=O)NC(=O)NC2=O)cc1OC | 4

# Next entries follow.
SMILES | Calb biofilm kill
O=c1[nH]c(=S)[nH]c(O)c1CN1CCCCC1 | 10
c1ccc2c(N3CCNCC3)nsc2c1 | 8
O=C1CN=C(c2ccc[nH]2)c2cc(Cl)ccc2N1 | 24
Cc1ccc(C(C)C)c(OCC#CCN2CCCC2)c1 | 15
Cc1cc(/C=C2/C(=O)NC(=O)N(c3ccc(Br)cc3)C2=O)c(C)n1C | 15
CN(C(=O)Oc1ccc(C(=O)c2ccc(Cl)cc2)cc1)c1ccccc1 | 16
Cc1cccc(CNCCc2ccccc2)n1 | 11
COC(=O)CSC1=NN1c1cc(C)nc(N)n1 | 10

# The final 6 entries of the section before open the next one.
SMILES | Calb biofilm kill
O=C1CN=C(c2ccc[nH]2)c2cc(Cl)ccc2N1 | 24
Cc1ccc(C(C)C)c(OCC#CCN2CCCC2)c1 | 15
Cc1cc(/C=C2/C(=O)NC(=O)N(c3ccc(Br)cc3)C2=O)c(C)n1C | 15
CN(C(=O)Oc1ccc(C(=O)c2ccc(Cl)cc2)cc1)c1ccccc1 | 16
Cc1cccc(CNCCc2ccccc2)n1 | 11
COC(=O)CSC1=NN1c1cc(C)nc(N)n1 | 10
O=C1Nc2ccc(Br)cc2C(c2ccccc2Cl)=NC1O (centres undefined) | 24
O=c1[nH]c(=S)[nH]c(O)c1N=Nc1ccc(S(=O)(=O)N2CCOCC2)cc1 | 17
CC(=O)N(C1=NCCCS1)c1ccc(Cl)cc1 | 12
O=C(CCn1nc(-c2ccc(Cl)cc2)ccc1=O)N1CCC2(CC1)OCCO2 | 12
O=c1[nH]c(=O)n(-c2ccccc2)c(O)c1N=Nc1ccc(Br)cc1 | 16
O=C(C(=O)N1CCOCC1)c1cn(Cc2ccc(F)cc2)c2ccccc12 | 23
O=C(N/N=C/c1c(O)n(CCc2ccc(F)cc2)c(=O)[nH]c1=O)c1ccccc1 | 29
CN1C(=O)NC(=O)/C(=C/c2ccc([N+](=O)[O-])s2)C1=O | 23

# Remaining list, next part.
SMILES | Calb biofilm kill
Cc1ccccc1-n1c(O)c(/C=N/c2nccs2)c(=O)[nH]c1=O | 13&5
CC(=O)c1cn(Cc2ccccc2C#N)c2ccccc12 | 29
COc1ccc2nc(NC3=NCCN3)sc2c1 | 6
Cc1ccsc1C(=O)C1CCCN(Cc2c(C)nn(C(C)C)c2C)C1 (centres undefined) | -9
COc1ccc(OC)c(C(O)C(C)N)c1 (centres undefined) | 12
OC(C#CCN1CCOCC1)(c1ccccc1)C1CCCC1 (centres undefined) | 17
CC(=O)Nc1ccccc1C(=O)OCc1ccc(F)cc1 | 11
O=[N+]([O-])c1cccc(CN2CCN(Cc3ccc(Br)cc3)CC2)c1 | 13

# Next section:
SMILES | Calb biofilm kill
C=C(CC1CC(O)[C@]2(C)OC3CC4OC5C[C@]6(C)O[C@]7(C)CCC8OC9C[C@]%10(C)OC%11C(C)=CC(=O)OC%11CC%10OC9C[C@@H](C)C8OC7CC6O[C@]5(C)C/C=C\C4OC3CC2O1)C(=O)O (some centres undefined) | 24
CCOc1ccccc1-n1c(O)c(C=NCCCn2ccnc2)c(=O)[nH]c1=O | 13
CN(C)[C@@H]1C(=O)C(C(N)=O)=C(O)[C@@]2(O)C(=O)C3=C(O)c4c(O)cccc4[C@@](C)(O)[C@H]3[C@H](O)[C@@H]12 | 4
O=C(c1cn(Cc2ccccc2)c2ccccc12)N1CCCCC1 | 4
Cc1cccc(NC(=O)C(C)N2CC=C(c3ccccc3)CC2)c1 (centres undefined) | 16
S=P(Nn1cnnc1)(c1ccccc1)c1ccccc1 | 16
O=c1[nH]c(=S)n(-c2ccccc2)c(O)c1C=NCc1ccccn1 | 14
CCN1CCN(c2cc(N3CCCC3)c([N+](=O)[O-])cc2F)CC1 | 5

# (listing goes on)
SMILES | Calb biofilm kill
C=C(c1ccccc1)P(=O)(O)O | 22
O=C1NC(=O)N(c2ccc3c(c2)OCO3)C(=O)/C1=C\c1ccsc1 | 12
C=CCn1c(O)c(/C=N/NC(=O)CCCC)c(=O)[nH]c1=S | 15
O=C(O)CN1C(=O)CN=C(c2ccccn2)c2cc(Cl)ccc21 | 4
CCN(CC)c1ccc(N=Cc2c(O)n(Cc3ccco3)c(=O)[nH]c2=O)cc1 | 18
O=C1NC(=O)C(CCc2ccccn2)(Cc2cccc(Cl)c2Cl)C(=O)N1c1ccc(Br)cc1 (centres undefined) | 13
O=[N+]([O-])c1ccc(N2CCNCC2)cc1NCc1ccco1 | -6
O=C(NC12CC3CC(CC(C3)C1)C2)OC1CN2CCC1CC2 (centres undefined) | 18

# Of the compounds above, these have a CF3 group.
SMILES | Calb biofilm kill
CCOC(=O)C(NC(=O)CCl)(Nc1ccc(C(O)(C(=O)OCC)C(F)(F)F)cc1)C(F)(F)F (centres undefined) | 6
NP(=O)(OCC(F)(F)F)Oc1cccc2ccccc12 (centres undefined) | 17
N#CC(C#N)=NNc1ccc(-n2ccc(C(F)(F)F)n2)cc1 | 13

# The list goes on.
SMILES | Calb biofilm kill
C=C(COC(C)=O)CC1CC(O)[C@]2(C)OC3CC4OC5C[C@]6(C)O[C@]7(C)CCC8OC9C[C@]%10(C)OC%11C(C)=CC(=O)OC%11CC%10OC9C[C@@H](C)C8OC7CC6O[C@]5(C)C/C=C\C4OC3CC2O1 (some centres undefined) | 21
C=C1C(=O)O[C@H]2[C@H]1[C@H](OC(=O)CC(=O)O[C@@H]1C[C@@H](C)[C@@H]3C=CC(=O)[C@@]3(C)[C@H]3OC(=O)C(=C)[C@H]13)C[C@@H](C)[C@H]1C=CC(=O)[C@]12C | 8
O=c1[nH]c(=S)n(-c2ccc(Cl)cc2)c(O)c1C=Nc1ccc(N2CCOCC2)cc1 | 20
N#CCP(=S)(c1ccccc1)c1ccccc1 | 17
C[N+]1(C)[C@@H]2CC(OC(=O)[C@H](CO)c3ccccc3)C[C@H]1[C@@H]1O[C@@H]12 (some centres undefined) | 16
CCOc1ccc2oc(C(=O)NN3C(C)CCCC3C)c(C)c2c1 (centres undefined) | 2
CCC(CC)N1CCN(C(=O)Cc2ccccc2)CC1 | 18
O=c1[nH]c(=S)n(-c2ccccc2F)c(O)c1C=NCc1ccco1 | 11

# Remaining list, next part
SMILES | Calb biofilm kill
CCCCn1c(O)c(C(=O)/C=C/c2c[nH]c3ccccc23)c(=O)[nH]c1=O | 6
Cc1ccc(C(=O)O)cc1N=Nc1c(O)[nH]c(=O)[nH]c1=O | 10
CC(C)(C)C(=O)Cn1c(NCCCl)nc2ccccc21 | 2
CCCCn1c(NC(=O)c2ccc(Br)o2)c(C(=O)OCC)c2nc3ccccc3nc21 | 3
COc1cccc(N2C(=O)NC(=O)/C(=C/c3ccc4c(c3)Cc3ccccc3-4)C2=O)c1 | 19
CN1C(=O)C(=Cc2cccnc2)C(=O)N(C)C1=O | 7
COC12C(COC(N)=O)C3=C(C(=O)C(C)=C(N)C3=O)N1CC1C2N1C (centres undefined) | 14
O=C(N/N=C/c1c(O)n(Cc2ccccc2)c(=O)[nH]c1=O)c1ccncc1 | 19

# (more compounds)
SMILES | Calb biofilm kill
CN(C)C(Cc1ccccc1)C(=O)c1ccccc1 (centres undefined) | 8
COc1ccccc1-n1c(Cc2ccccc2)nc2ccccc2c1=O | 27
O=C(c1ccc2c3c(cccc13)CC2)C1CCCN(Cc2ncc[nH]2)C1 (centres undefined) | 25
COc1ccc(C2=NCc3nnc(C)n3-c3ccc(Cl)cc32)cc1Cl | 9
COc1ccc(OCC(=O)N2CCN(C3CCC(c4ccccc4)CC3)CC2)cc1 (centres undefined) | 17
CC(C)(C)c1nc(NCc2ccc3c(c2)OCO3)c2nnn(Cc3ccccc3Cl)c2n1 | 4
COc1ccc(C(=O)C2CCCN(Cc3ccccn3)C2)c(OC)c1 (centres undefined) | 1
O=C1NC(=O)N(c2ccc3c(c2)OCO3)C(=O)/C1=C\c1ccc(N2CCCCC2)o1 | 17

# New compounds follow
SMILES | Calb biofilm kill
CCCCCCn1c(O)c(/C=N/N2CCCCCC2)c(=O)[nH]c1=O | 12
CN1C(=O)C(=Cc2ccccc2OCCOc2ccc([N+](=O)[O-])cc2)C(=O)N(C)C1=O | 14
Cn1c(O)c(/C=N/NC(=O)c2ccncc2)c(=O)n(C)c1=S | 16
Cc1c(N=Nc2c(O)n(-c3ccc(Br)cc3)c(=O)[nH]c2=O)c(=O)n(-c2ccccc2)n1C | 15
COc1ccc(OC)c(NC2=NCCS2)c1 | 11
COc1ccccc1-n1c(CNCC2CCCO2)nc2ccccc2c1=O (centres undefined) | 8
Cc1ccccc1OP(N)(=O)Oc1ccccc1C | 19
CCn1ccnc1CN1CCCC(C(=O)c2cccc(C(F)(F)F)c2)C1 (centres undefined) | 16

# The list is partial; the hit share may differ from the screen's.
